KCNQ2 inh: KCNQ2 potassium channel inhibitors, primary screen, cell-based, CHO-K1, FluxOR thallium flux, B-score (AID 2156); B-score at 10 µM; 1.1% of 310,000 active; 20 min; stronger effect = lower value; only compounds with negative scores are shown here; some inactives read as strong as hits; Potassium voltage-gated channel subfamily KQT member 2 (Rattus norvegicus), O88943;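 active = fluorescence ratio B-score at most minus 3 library SDs, with starting brightness B-score within 2 library SDs, cut at about -5.5 in these data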
Target sequence (O88943 whole entry, looked up): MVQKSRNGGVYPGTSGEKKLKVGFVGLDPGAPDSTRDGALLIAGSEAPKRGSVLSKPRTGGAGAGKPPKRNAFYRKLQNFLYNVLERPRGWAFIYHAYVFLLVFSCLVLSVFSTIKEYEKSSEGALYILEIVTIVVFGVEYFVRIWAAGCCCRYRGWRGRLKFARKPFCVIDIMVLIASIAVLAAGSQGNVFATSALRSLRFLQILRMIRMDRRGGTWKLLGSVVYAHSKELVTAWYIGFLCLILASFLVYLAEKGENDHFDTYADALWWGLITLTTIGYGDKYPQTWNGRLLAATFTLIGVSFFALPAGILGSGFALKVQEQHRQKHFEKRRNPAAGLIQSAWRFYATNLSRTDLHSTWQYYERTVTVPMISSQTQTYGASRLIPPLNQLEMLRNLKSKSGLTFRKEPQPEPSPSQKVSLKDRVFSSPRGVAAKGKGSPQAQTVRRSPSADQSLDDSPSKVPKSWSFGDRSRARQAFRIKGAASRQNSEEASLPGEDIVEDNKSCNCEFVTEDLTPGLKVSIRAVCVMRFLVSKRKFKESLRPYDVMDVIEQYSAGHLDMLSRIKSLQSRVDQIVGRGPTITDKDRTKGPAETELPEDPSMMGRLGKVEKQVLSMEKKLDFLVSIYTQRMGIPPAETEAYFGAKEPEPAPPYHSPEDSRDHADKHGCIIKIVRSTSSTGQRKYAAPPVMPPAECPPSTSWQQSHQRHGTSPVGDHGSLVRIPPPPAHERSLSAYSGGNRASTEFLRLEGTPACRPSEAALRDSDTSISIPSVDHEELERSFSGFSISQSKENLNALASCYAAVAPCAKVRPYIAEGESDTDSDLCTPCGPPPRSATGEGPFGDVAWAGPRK
KCNQ2 inh baseline: recorded beside KCNQ2 inh, whose call it bears; B-score; measured here: initial fluorescence intensity artifact check;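 brightness before thallium and not channel activity; 0 = typical well and far values either way flag optical interference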
* marks the source's active call; other numbers are inactive results; i = inactive.

SMILES	KCNQ2 inh	KCNQ2 inh baseline
CC(C)CC(C(=O)OCC(=O)Nc1ncc(Cl)cc1Cl)N1C(=O)c2ccccc2C1=O (stereo not drawn)	i	-2.4
CC(C)C(C)NC(=O)CSc1nc2scc(-c3ccco3)c2c(=O)n1-c1ccccc1 (stereo not drawn)	i	-1.1
CCCCC1CCC(C(=O)N2CCOCC2)CC1 (stereo not drawn)	i	0.93
CSc1ccc2c(c1)N(CCC1CCCCN1C)c1ccccc1S2 (stereo not drawn)	-5.8*	0.04*
Cc1[nH]c(=O)[nH]c(=O)c1S(=O)(=O)N(CC(C)C)CC(C)C	i	4.2
CCCCCCN(C(=O)CCCCCN1C(=O)NC(c2ccc(-c3ccccc3)cc2)C(C(=O)OCc2ccccc2)=C1C)C(C(=O)NCCCC)c1cccc(C(=O)OC)c1 (stereo not drawn)	i	0.27
O=C(c1cc(C(=O)N2CCN(c3ccc(F)cc3)CC2)cc([N+](=O)[O-])c1)N1CCN(c2ccc(F)cc2)CC1	-5.9*	-3*
O=C(Nc1nc2c(s1)COc1ccccc1-2)c1cccs1	i	-2.4
COc1ccc(NC(=O)COc2ccc(C(=O)NC3CCCc4ccccc43)cc2OC)cc1 (stereo not drawn)	i	-1.3
CCN(CC(=O)Nc1ccccc1C(F)(F)F)C(=O)CCc1nc2ccccc2c(=O)[nH]1	i	-1.4
Cc1cccc(N2CCN(S(=O)(=O)c3ccc4c(c3)OCCO4)CC2)c1C	i	-1.1
O=C1c2ccccc2NC(c2cccc(O)c2)N1Cc1ccco1 (stereo not drawn)	i	-0.07

Record cards, as listed above:
Cc1cccc(N2CCN(S(=O)(=O)c3ccc4c(c3)OCCO4)CC2)c1C is listed with KCNQ2 inh: i; KCNQ2 inh baseline: -1.1
CCCCC1CCC(C(=O)N2CCOCC2)CC1 (stereo not drawn) is listed with KCNQ2 inh: i; KCNQ2 inh baseline: 0.93

Continuation.
SMILES	KCNQ2 inh	KCNQ2 inh baseline
CCc1cc2c(C)cc(=O)oc2cc1OC(=O)C1CCCN1C(=O)OC(C)(C)C (stereo not drawn)	-6*	-0.35*
COc1ccc(C(CCNCc2ccccc2)c2ccc(F)cc2)cc1 (stereo not drawn)	i	-2.5
C#CCOCCOCCOCCNc1nc(N2CCN(C(=O)C(Cc3ccc(O)cc3)n3cc(C(N)C(C)CC)nn3)CC2)nc(N2CCN(C(=O)C(Cc3ccc(O)cc3)n3cc(C(N)C(C)CC)nn3)CC2)n1 (stereo not drawn)	i	1.1
COc1ccccc1C(=O)NC(=S)NC12CC3CC(CC(C3)C1)C2	i	-0.17
CCOC(=O)C1=C(c2ccccc2)NC(=O)NC1c1ccc(N(C)C)cc1 (stereo not drawn)	i	1.3
FC(F)(F)c1cccc(Nc2nc(N3CCCC3)nc(N3CCCC3)n2)c1	i	2.4
COc1cccc(C2c3c(oc4cc(C)c(C)cc4c3=O)C(=O)N2CCCN(C)C)c1 (stereo not drawn)	i	1.5
COc1cc(NC(=O)c2ccco2)c(OC)cc1NC(=O)CCC(=O)Nc1cc(C)cc(C)c1	i	-0.85
O=C(OCn1nnc2ccccc2c1=O)c1cccnc1Cl	i	0.87
Cc1ccccc1N=C1c2cc([N+](=O)[O-])ccc2-c2ncccc21	i	1.3
Cc1nc(N2N=C3/C(=C/c4ccc(F)cc4)CCCC3C2c2ccc(F)cc2)sc1C(=O)N(C)C (stereo not drawn)	i	-0.01
CC(C)C1OC2(C)OC(=N)C1(C#N)C(C#N)(C#N)C2c1ccccc1 (stereo not drawn)	i	0.81
CCCCN(C(=O)c1ccc(C)c(S(=O)(=O)N2CCOCC2)c1)c1c(N)n(CCCC)c(=O)[nH]c1=O	i	-1.9
Cc1cc(C)c(S(=O)(=O)N2CCN(S(=O)(=O)N3CCC(C)CC3)CC2)c(C)c1	i	0.07
COc1cccc(C(=O)CN(C(=O)c2ccc(Cl)c(Cl)c2)N2C(=O)C3CCCCC3C2=O)c1 (stereo not drawn)	i	-0.64
CCCCN(C(=S)Nc1ccc(F)cc1)c1c(N)n(CCC)c(=O)[nH]c1=O	i	0.58
Cc1ccc(S(=O)(=O)N/N=C\c2cccnc2)cc1	i	-0.97
Cc1ccc(C)c(N2CCN(C(=O)c3ccc(N4CCOCC4)c([N+](=O)[O-])c3)CC2)c1	i	-0.9
S=C(NCc1ccccc1)NNc1nc2ccccc2[nH]1	i	0.02
CCSc1nc(O)c(Cc2ccccc2)c(=O)[nH]1	i	-0.31
O=C(c1ccc(-n2cnnn2)cc1)N1CCCCC1	i	-0.2
COc1ccccc1NC(=O)Cn1c(=O)sc2ccccc21	i	-0.06
Cc1cc(C)c2c(n1)sc1c(=O)n(Cc3ccc(F)cc3)cnc12	i	0.09
CCN(CC)c1ccc(C=Nc2ccc(C)cc2)c(O)c1	i	1.3
COC(=O)C1=C(C)N(c2cc(C)cc(C)c2)/C(=C/c2ccc(O)cc2)C1=O	i	-3.2
COc1ccc(CC(=O)Nc2sc(Cc3ccccc3)c(C)c2C(N)=O)cc1	i	-0.01
CCN(CC)C(=O)N1CCc2ccccc2C1CN1C(=O)c2ccccc2C1=O (stereo not drawn)	-6.2*	2.2*
CCCc1cc(C(=O)Nc2ccc(C#N)cc2)no1	i	1.2
Cc1ccc(S(=O)(=O)CCC(=O)N(CCCN2CCOCC2)c2nc3ccccc3s2)cc1	i	-0.68
CCCn1c(N)c(C(=O)CN2CCc3ccccc3C2)c(=O)n(C)c1=O	i	0.21
O=C(O)c1ccc2c(c1)N(Cc1ccccc1F)C(=O)c1ccccc1S2=O (stereo not drawn)	i	0.74
Cn1c(CC(=O)Nc2ccccc2C(F)(F)F)c(Sc2ccccc2)c2ccccc21	i	1.4
c1ccc(CNc2nc(NCc3ccccc3)c3ccccc3n2)cc1	i	-1.4
CCn1c(=O)c2cc(S(=O)(=O)NC3CCCCC3)ccc2n(CC)c1=O	i	-0.64
CCOCCCNC(=S)NCCCNc1nc2ccc(C)cc2cc1C#N	i	-0.45
C=CCN(CC=C)C(=S)Nc1cc(Cl)ccc1OC	i	-3
Cc1cccc(CSc2nnnn2-c2ccccc2)c1	i	-0.37
COc1ccccc1-n1cnnc1SCC(=O)c1c[nH]c2ccccc12	i	0.86
N#C/C(=C\c1ccc(N2CCOCC2)o1)C(=O)NCCc1ccccc1	i	4.8
CCC(C)(C)n1nnnc1C(c1cc2ccc(OC)cc2[nH]c1=O)N1CCc2ccccc2C1 (stereo not drawn)	i	0.03
CCOC(=O)CCSc1nc(C)c2ccccc2n1	i	1.5
COc1cc(OC)cc(C(=O)NCC2CCCN(Cc3ccc(SC)cc3)C2)c1 (stereo not drawn)	i	2.4
COc1cc(C(=O)Nc2oc(-c3ccccc3)c(-c3ccccc3)c2C#N)cc(OC)c1OC	-6.3*	-1.5*
COc1ccccc1N1CN(CCc2ccccc2)CNC1=S	i	0.14
Cc1ccc(S(=O)(=O)n2nc(OC(=O)C(C)(C)C)cc2N)cc1	i	-0.61
O=S(=O)(c1ccc(NC(=S)NCCc2ccccc2)cc1)N1CCOCC1	i	0.37
COc1ccc(CNC(=O)[C@H](C)NC(=O)C2CCN(C(=O)[C@H](CCSC)NC(=O)OC(C)(C)C)CC2)cc1	i	0.58
CCCS(=O)(=O)N1CCC(C(=O)NCCc2ccc(C)cc2)CC1	i	-1.1
COc1cc2c(cc1OC)CN(C(=O)CCCOc1ccc(Cl)cc1Cl)CC2	i	1
O=C(CNc1cccc(Cl)c1)c1ccc(Cl)cc1	i	0.96
CN(CCCC1CCCC1)C(=O)c1cc(COc2ccc(F)cc2F)on1	i	1.1
O=C1c2cccc3cccc(c23)C(=O)N1CCN1CCN(CC(O)COCc2ccc(Cl)cc2)CC1 (stereo not drawn)	-5.7*	2.4*
COc1ccc(Br)cc1S(=O)(=O)N1CCN=C1C	i	0.63
O=C(CN(CC1CCCO1)C(=O)Cn1nnc(-c2ccc(F)cc2)n1)NC1CCCCC1 (stereo not drawn)	i	-0.01
CS(=O)(=O)N(CC(=O)N/N=C/c1cccc2c1OCCO2)c1ccccc1Br	i	0.78
O=C1CC(c2ccc3c(c2)OCO3)C2=C(CCCC2=O)N1 (stereo not drawn)	i	-0.38
O=C(OCC(=O)N(CCc1ccccc1)Cc1ccccc1)c1ccccc1O	-7.2*	-1.1*
CN(C)CCNC(=O)c1cccc(S(=O)(=O)Nc2ccccc2F)c1	i	-0.04
CCOc1ccccc1CN1CCNC(=O)C1CC(=O)N(C)CCc1cnn(C)c1 (stereo not drawn)	i	0.46
S=C(N/N=C/c1cccc2ccccc12)Nc1cccc(Cl)c1	i	1.2
Following part:
SMILES	KCNQ2 inh	KCNQ2 inh baseline
COc1ccccc1NC(=O)C(=O)Nc1ccccn1	i	0.64
Nn1c(Cc2cccc3ccccc23)nnc1SCC(=O)N1CC(=O)Nc2ccccc21	i	-2
CN(C)CCNc1ncnc2c1cnn2-c1ccc(Cl)cc1	i	-0.09
COC(=O)C1=C(C(=O)OC)[C@@H]2N(C)c3ccccc3[C@@]23C[C@@H](C(=O)OC)N(C(=O)COCc2ccccc2)C3=N1	i	1.5
COc1ccc(N(CC(=O)Nc2ccc(C)cc2C)S(=O)(=O)c2c(C)n[nH]c2C)cc1	i	-1.3
CC(=O)NC(=S)Nc1ccccc1N1CCN(C(=O)c2ccccc2)CC1	i	0.1
Cc1ccc(C2Nc3cccc4cccc(c34)N2)cc1	i	0.21
Cc1ccc(NCc2nnc(SCC(=O)Nc3ccccc3)n2CC2CCCO2)c(C)c1 (stereo not drawn)	i	-1.5
Cc1ccc(S(=O)(=O)N2CCOCC2)cc1C(=O)Nc1ccccc1N1CCCC1	-6.6*	0.17*
CN1CCN(C(CNS(=O)(=O)c2ccc([N+](=O)[O-])cc2)c2ccc(F)cc2)CC1 (stereo not drawn)	i	1.3
COc1cc(C(=O)Nc2cccc3ncccc23)cc(OC)c1OC	i	0.93
c1ccc(OCCCc2nc(-c3cccnc3)no2)cc1	i	-1.4

Shown with values under each structure: part of the list above.
Values in the order – KCNQ2 inh, KCNQ2 inh baseline
Cc1ccc(S(=O)(=O)N2CCOCC2)cc1C(=O)Nc1ccccc1N1CCCC1
 : -6.6*, 0.17*
COc1cc(C(=O)Nc2cccc3ncccc23)cc(OC)c1OC
 : i, 0.93
CN1CCN(C(CNS(=O)(=O)c2ccc([N+](=O)[O-])cc2)c2ccc(F)cc2)CC1 (stereo not drawn)
 : i, 1.3
Nn1c(Cc2cccc3ccccc23)nnc1SCC(=O)N1CC(=O)Nc2ccccc21
 : i, -2
COc1ccc(N(CC(=O)Nc2ccc(C)cc2C)S(=O)(=O)c2c(C)n[nH]c2C)cc1
 : i, -1.3
COC(=O)C1=C(C(=O)OC)[C@@H]2N(C)c3ccccc3[C@@]23C[C@@H](C(=O)OC)N(C(=O)COCc2ccccc2)C3=N1
 : i, 1.5

Continued.
SMILES	KCNQ2 inh	KCNQ2 inh baseline
Cc1ccccc1NC(=O)Cc1nc(COC(=O)c2cc([N+](=O)[O-])ccc2NCCO)cs1	i	1.3
COc1ccc(CCNC(=O)[C@H](CCSC)NC(=O)N2CCn3c2nc2ccccc23)cc1OC	i	0.39
O=C(NCc1cccc(CNC(=O)C(=O)NCc2ccco2)c1)C(=O)NCc1ccco1	i	0.11
COC(=O)CSC1=C(C#N)C(c2ccc3c(c2)OCO3)C2=C(CCCC2=O)N1 (stereo not drawn)	i	0.31
CC(=O)c1sc(NCCOc2ccc(C)cc2)nc1C	i	0.31
CSCCOC(=O)C1=C(C)Nc2ccc(C)cc2S1	i	0.88
N/C(=N\OC(=O)N1c2ccccc2Sc2ccccc21)c1ccccc1	-6.5*	0.13*
Cc1c(N=c2scc(-c3ccccc3)n2C)c(=O)n(-c2ccccc2)n1C	i	-0.77
CCOc1ccccc1NC(=O)CSc1nc(=O)n(Cc2ccncc2)c2c1CCC2	i	0.65
CCOc1ccc(C2C(C(=O)c3ccco3)=C(O)C(=O)N2CCCn2ccnc2)cc1 (stereo not drawn)	i	0.27
Cc1ccc(C2(c3ccc(C)cc3)CC2C(=O)Nc2ccc([N+](=O)[O-])cc2O)cc1 (stereo not drawn)	-7.8*	0.99*
O=C(NCC(O)c1ccc([N+](=O)[O-])cc1)C(c1ccccc1)c1ccccc1 (stereo not drawn)	i	-1.3
CCOC(=O)C(NC(=O)Nc1ccc(Cl)cn1)(Oc1ccc(F)cc1)C(F)(F)F (stereo not drawn)	i	-0.57
COc1cc(C(=O)Oc2cc(N)n(S(=O)(=O)c3ccc(F)cc3)n2)cc(OC)c1OC	i	-0.37
CCN(CC(=O)NCc1ccc(F)cc1)C(=O)CN1CCN(c2cc(Cl)ccc2C)CC1	-9.5*	-0.02*
CCCCn1nc2cc(C(=O)NCCCCc3ccccc3)ccc2c1OCC	i	0.87
CN(C(=O)CSc1nnc2ccccn12)C1CCS(=O)(=O)C1 (stereo not drawn)	i	0.37
C=CCn1c(-c2ccc(OC)cc2)nc2ccccc21	i	-0.75
O=C(NCc1ccco1)/C(=C/c1ccc(F)cc1)NC(=O)c1ccccc1	i	-1.1
Cc1ccc(C(=O)NCC(=O)OCC(=O)Nc2cccc(S(=O)(=O)N3CCCC3)c2)cc1C	i	-0.46
CSc1ccc(/C=C/C(=O)c2c(O)cc(C)oc2=O)cc1	i	-0.71
Cc1ccc2onc(CC(=O)O)c2c1	i	-1.5
OCC1(Cc2ccccc2)CCN(Cc2cnc(-c3ccc(Cl)cc3)nc2)CC1	i	0.4
CC(=O)Oc1oc(-c2ccccc2)nc1C=Nc1ccccc1	i	0.13
O=C(O)c1nn(CCOc2cccc(Cl)c2)c(=O)c2ccccc12	i	0.75
CC1(C)Cc2c(sc(NC(=O)C(=O)N3CCCCC3)c2C(N)=O)CO1	i	1.2
CCCc1cc(N2CCN(C(=O)c3ccco3)CC2)n2c(nc3ccccc32)c1C#N	i	-1.2

Screens from PubChem.

Only part of the results is shown; the hit share may differ from the screen's.
